# Menin MLL FP FL: inhibitors of human menin-MLL interaction, wild-type MLL peptide; Fluorescence polarization, fluorescein-MLL peptide displacement from menin; AID 1766; 290,000 tested, under 10 active; FP activity change, % at 61.4 µM; inconclusive = falling polarisation curve, or a change in total fluorescence; inactive = total fluorescence flat and polarisation flat or rising; no compound was filed as active; the % refers to the polarisation; negative = inhibition;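 also: % of control where 0% means no effect; inhibitors lower the polarisation; unlabelled MLL peptide was the positive control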
# Sfp inh: inhibitors of Bacillus subtilis Sfp phosphopantetheinyl transferase | Potency, µM, for inactives: max response, negative = inhibition, actives largely listed as inhibitors | AID 1490 | Biochemical Sfp PPTase activity, qHTS | 3.5% of 310,000 active | Q9F4F7; active = well fitted inhibition curve with a large enough effect; inconclusive = small, poorly fitted or top-dose-only effect, or another doubt; inactive = no such curve, though single readings can be large or run the other way;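 also: the enzyme is Sfp with the accession as filed and its product quenches rhodamine fluorescence; potency is read from the fitted curve at half-maximal effect; 0% = enzyme reaction without inhibitor and -100% = no enzyme wells; top concentration of the series not given in the record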
#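 Sfp 15 nM + cpd, 15 min RT; start w/ rhodamine-CoA 5 uM, BHQ-2-YbbR 12.5 uM (final); 50 mM Hepes pH 7.6, 10 mM MgCl2, 0.01% NP-40, 0.01% BSA; read 525/598 nm at 0 and 30 min.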
# ClpP mod: qHTS Assay for Activators of ClpP. ATP-dependent Clp protease proteolytic subunit (Bacillus subtilis (strain 168)), P80244. purified B. subtilis ClpP, FRET peptide cleavage, 20 min. Potency, µM (series often up to 57.5 µM), for the others: top-dose activity change, negative = active. 1.9% of 340,000 active. AID 651965, 2013; active = well fitted falling curve with a large enough effect; inconclusive = small, poorly fitted or top-dose-only effect; inactive = no such curve, though single readings can be large or run the other way; also: potency is read from the fitted curve at half-maximal effect; the source files actives as falling curves though it sought activators and does not explain the sign; nearly all actives have a fitted effect of over 65% in size; many hits overshoot -100%
# Target sequence (P80244 whole entry, looked up): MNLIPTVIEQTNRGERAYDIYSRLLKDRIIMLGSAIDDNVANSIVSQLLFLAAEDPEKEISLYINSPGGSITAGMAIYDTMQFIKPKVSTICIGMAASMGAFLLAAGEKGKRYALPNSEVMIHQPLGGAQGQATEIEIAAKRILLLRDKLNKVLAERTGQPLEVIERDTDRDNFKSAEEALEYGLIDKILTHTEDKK
#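 Buffer: 100 mM Tris/HCl pH8, 100 mM KCl, 0.05% low protease BSA, 2.5% glycerol, 0.01% Tween-20. ClpP 10 microg/mL final; 20 min RT; delta FRET normalized to ADEP and DMSO controls.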
# TRPV1 PAM: human TRPV1 potentiation; potentiation, % at 8.33 µM; AID 540277; Q8NER1; 0.02% of 320,000 active; TRPV1-expressing cells, Fluo-8 calcium influx, capsaicin EC20 potentiation; host cell line not named in the record; control for the full effect not named in the record; active means potentiation above 80%; inconclusive means 30% to 80%; inactive means below 30%; also: 0% is about no effect
# Target sequence (Q8NER1 whole entry, looked up): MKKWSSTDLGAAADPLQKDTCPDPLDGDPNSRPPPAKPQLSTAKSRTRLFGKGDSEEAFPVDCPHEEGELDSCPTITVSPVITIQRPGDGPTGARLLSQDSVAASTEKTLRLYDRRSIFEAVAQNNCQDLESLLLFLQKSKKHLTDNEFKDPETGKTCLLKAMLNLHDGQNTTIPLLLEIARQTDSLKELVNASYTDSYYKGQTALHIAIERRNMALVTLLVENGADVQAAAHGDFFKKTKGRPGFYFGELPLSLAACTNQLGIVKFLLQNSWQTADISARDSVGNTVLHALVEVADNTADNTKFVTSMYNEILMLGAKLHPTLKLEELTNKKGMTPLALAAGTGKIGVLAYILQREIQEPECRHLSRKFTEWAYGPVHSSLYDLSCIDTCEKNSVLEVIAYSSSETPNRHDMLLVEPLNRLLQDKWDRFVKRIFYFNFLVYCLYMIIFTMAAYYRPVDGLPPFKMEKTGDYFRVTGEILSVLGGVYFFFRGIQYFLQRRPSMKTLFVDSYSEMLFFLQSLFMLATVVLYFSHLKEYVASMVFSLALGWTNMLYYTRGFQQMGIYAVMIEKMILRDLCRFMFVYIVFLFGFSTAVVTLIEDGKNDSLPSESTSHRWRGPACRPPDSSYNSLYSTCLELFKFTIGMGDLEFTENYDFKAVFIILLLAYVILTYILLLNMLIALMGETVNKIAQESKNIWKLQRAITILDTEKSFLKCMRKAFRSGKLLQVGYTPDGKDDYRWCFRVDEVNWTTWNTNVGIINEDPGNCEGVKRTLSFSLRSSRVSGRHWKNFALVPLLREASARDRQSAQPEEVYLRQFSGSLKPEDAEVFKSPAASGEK
#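 Cells expressing TRPV1 were dye-loaded with Fluo-8 and read kinetically: 10 s baseline, 3 min after compound (agonist portion), then 2 min after EC20 capsaicin (allosteric enhancer portion). Calcium-bound dye fluorescence at 480/520 nm.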
# gsp ag: gsp mutant agonism; gsp mutant cells, cAMP HTRF, 30 min; control for the full effect not named in the record; Potency, µM (doses to about 76.9 µM), inactives show top-dose activation (cAMP increase), usual class: activators; 0.13% of 340,000 active; AID 624287; active = well fitted activation curve with a large enough effect; inconclusive = small, poorly fitted or top-dose-only effect, or another doubt; inactive = no such curve, though single readings can be large or run the other way; cell line not stated here;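 also: phosphodiesterase inhibitor Ro 20-1724 added with compounds to block cAMP breakdown; potency is read from the fitted curve at half-maximal effect; nearly all actives have a fitted effect of over 60% in size; about a fifth of the inactives were tested at one dose only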
#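 Cells stably selected in G418 were plated at 2000/well, grown 16-24 hr, then given compounds in DMSO with the PDE inhibitor […] (300 uM solution added) for 30 min at 37C; cAMP was read by HTRF.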
# gsp antagonist: antagonists of gsp mutant (McCune-Albright syndrome). gsp-mutant cells, cAMP HTRF, 30 min; control for the full effect not named in the record. 0.4% of 340,000 active. AID 624288. Potency, µM (series often up to 76.9 µM), for the others: top-dose activity change, negative = inhibition, hits mostly inhibitors; active = falling curve of any shape with a large fitted effect; inconclusive = falling curve, mostly with a smaller effect; inactive = flat or rising curve; cell line not stated here;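 also: intracellular cAMP measured with PDE inhibitor Ro 20-1724 present during compound exposure; potency is read from the fitted curve at half-maximal effect; % is scaled to controls: 0 for no effect and ±100 for the full control effect; nearly all actives have a fitted effect of over 65% in size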
#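 Cells, 2000/well, grown 16–24 h in DMEM 10% FBS with 0.5 mg/ml G418, then compounds plus […] (300 uM addition stock), 30 min at 37C. cAMP read by HTRF (cAMP-d2 and anti-cAMP antibody-K in lysis buffer) after 30 min RT.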
# D2 PAM: human D2 receptor positive allosteric modulation. P14416. DiscoveRx D2 beta-arrestin cells, luminescence, 90 min; 100% = 57 uM dopamine signal. potentiation, % (concentration not given with the values). 0.23% of 360,000 active. AID 624464; active = potentiation of 50% or more; inconclusive = 30% to 50%; inactive = 30% or less;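 also: compound concentration not given in the record; tested on top of an EC20 dose of dopamine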
#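 PathHunter D2 cells, attached overnight at 37 deg C, received compound in DMSO plus dopamine at EC20 (50 nM final) for 90 min at 37 deg C. Beta-arrestin recruitment was read as luminescence after 1 h with detection reagent at ambient temperature.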
# An asterisk follows results filed as active; ? = inconclusive; nt = no result given; & = joins results of further samples; [ ] = remark or other dose.
SMILES,Menin MLL FP FL,Sfp inh,ClpP mod,TRPV1 PAM,gsp ag,gsp antagonist,D2 PAM
O=C(C1COc2ccccc2O1)N1CCN(Cc2ccc(Br)cc2F)CC1 (stereo not given),-2.5,11%,nt,-2,-6%[15.4 µM],5%,-16
Cc1ccc(C)c(SCC(=O)Nc2cc(C)nn2-c2ccc(F)cc2)c1,0.5,22%,nt,-12,nt,nt,nt
COc1cc(/C=C2/SC(=S)N(c3ccccc3)C2=O)ccc1Oc1nc(N2CCOCC2)nc(N2CCOCC2)n1,?,?,-4.2%,?,5%,1%,-5
Fc1ccc(-n2nnc(-c3cnc4ccccc4c3)n2)cc1,-4.1,8%,0.4%,6,nt,-5%,-8
CCCCOc1ccc(C(O)(CCC)CCN2CCOCC2)cc1 (stereo not given),5.3,14%,-0.8%,-9,-9%,5%,-1
CCCOc1cccc(C(=O)N/N=C/c2coc3ccccc3c2=O)c1,nt,16%,32%,4,-37%[inhibitor],-7%,-8
C=C(C)Cn1c(SCCCO)nc2c1c(=O)[nH]c(=O)n2C,0.1,1%,-1.7%,-1,?,1%,6
CCc1ccc(NC(=O)N(CCCOC(C)C)C2CCN(C(C)=O)CC2)cc1,0.6,14%,-0.3%,-16,-22%,-8%,-2
CCN(CCCNC(=O)C1CCN(S(=O)(=O)CC)CC1)c1cccc(C)c1,1.4,9%,-1.1%,23,-25%,-17%,-3
O=[N+]([O-])c1cccc(/C=N/N2CCN(Cc3ccccc3)CC2)c1,-4.6,6%,nt,4,?,-1%,-17
Cc1oc(-c2ccccc2Cl)nc1CS(=O)CC(=O)NCCCN1CC(C)CC(C)C1 (stereo not given),nt,13%,-1.3%,-15,?,9%,-33
O=C(CSc1nccn1-c1ccccc1)c1ccc(Cl)cc1,-1.1,-15%,3.7%,-8,-22%,2%,-21
Cc1[nH]c2c(ccc3cccnc32)c1C,-1.5,-29%,nt,8,8%[15.4 µM],-3%,6
COc1ccc2c(c1)C(=O)C1NC(=O)NC(=O)C1(Br)N2 (stereo not given),nt,nt,nt,nt,-7%,4%,1
COc1cc(/C=C2/C(=O)ON=C2C)cc(Cl)c1O,?,-11%,nt,5,28%,-4%,-5
COc1cccc(C(=O)Nc2ccc3ccccc3c2)c1,3.7,-5%,-2.8%,-2,4%[15.4 µM],-2%,-12
Cc1ccc(/C=N/n2c(-c3cccnc3)n[nH]c2=S)s1,-1.2,35µM*,-5.3%,-5,-20%,7.9µM*,-37
C=CCNC(=O)COC(=O)C1CCN(S(=O)(=O)c2ccc3c(c2)OCCO3)CC1,nt,-28%,-0.6%,-9,1%[15.4 µM],-14%,-17
Cc1cccc2cc(CN(Cc3ccc4c(c3)OCO4)Cc3nnnn3C3CCCC3)c(=O)[nH]c12,3.2,-22%,-9.4%,-4,-50%[inhibitor],-6%,-16
O=C(CSc1ccc(-c2ccccn2)nn1)NCc1ccccc1,3.7,-21%,nt,?,26%[15.4 µM],-1%,-7
Nc1nonc1-n1nnc(C(=O)N/N=C/c2ccc3c(c2)OCO3)c1-c1ccccc1,2.3,2%,nt,7,-5%[15.4 µM],35µM*,-3
OC1CCCN(Cc2cn(Cc3ccccc3)nc2-c2cc3ccccc3o2)C1 (stereo not given),2.3,4%,nt,3,?,11%,-12
Cc1nn(-c2ccccc2)c(Cl)c1C(=O)NCc1cccs1,0.2,11%,-3.0%,9,?,5%,-3
OC(CNC1CCCC1)COc1ccc(F)cc1 (stereo not given),-1.8,1%,-1.0%,-4,-3%,12%,-47
CC(O)C(C(=O)OCc1ccc([N+](=O)[O-])cc1)N1C(=O)c2ccccc2C1=O (stereo not given),nt,13%,-2.9%,-1,1%[15.4 µM],-3%,-4

# Of the compounds above, these contain bromine:
SMILES,Menin MLL FP FL,Sfp inh,ClpP mod,TRPV1 PAM,gsp ag,gsp antagonist,D2 PAM
O=C(C1COc2ccccc2O1)N1CCN(Cc2ccc(Br)cc2F)CC1 (stereo not given),-2.5,11%,nt,-2,-6%[15.4 µM],5%,-16
COc1ccc2c(c1)C(=O)C1NC(=O)NC(=O)C1(Br)N2 (stereo not given),nt,nt,nt,nt,-7%,4%,1

# Additional records follow.
SMILES,Menin MLL FP FL,Sfp inh,ClpP mod,TRPV1 PAM,gsp ag,gsp antagonist,D2 PAM
c1ccc(-c2cncnc2)nc1,nt,nt,-3.0%,-5,-50%[inhibitor],10%,-3
CCC(C)NC(=O)Nc1ccc(F)c(Cl)c1 (stereo not given),-2.6,2%,nt,-14,10%[15.4 µM],-1%,-7
COc1ccc(N(C(=O)Cc2cccs2)C(C(=O)NC2CCCC2)c2ccncc2)cc1OC (stereo not given),3.4,11%,?,-7,1%[15.4 µM],8%,-4
Cc1ccc(NCC(=O)c2ccccc2)cc1Cl,-0.6,9%,0.8%,17,-22%,8%,-37
CCC(Sc1ncccc1C(=O)O)C(=O)N1CCCC1 (stereo not given),3.9,11µM*,-2.1%,2,-1%,5%,2
CSCC[C@H](NC(=O)OC(C)(C)C)C(=O)N1CCC(C(=O)N[C@@H](Cc2c[nH]c3ccccc23)C(=O)O)CC1,0.1,3%,-1.4%,-1,?,4%,-2
CCn1c(C)[n+](CC)c2ccc(S(=O)(=O)NC)cc21,2.9,15%,nt,13,25%[15.4 µM],5%,-11
CC(C)N(C)Cc1nnnn1CC(=O)NCCc1cccc(C(F)(F)F)c1,10,1%,nt,-7,-12%,11%,-10
CCn1ccc(C(=O)NC2=NCCS2)n1,-0.2,-9%,1.7%,2,-21%,1%,-19
N#CC1=C(N)OC2=C(C(=O)CC(c3ccccc3)C2)C1c1cccnc1 (stereo not given),2.1,-8%,1.4%,?,-4%,3%,-18
Cn1c(=O)c([N+](=O)[O-])c(N2CCN(Cc3ccc4c(c3)OCO4)CC2)c2ccccc21,-0.6,-7%,0.3%,3,-18%[15.4 µM],-23%,-15
CN(CC(=O)Nc1cccc(S(=O)(=O)N2CCCC2)c1)Cc1ccccc1,nt,nt,25µM*,nt,2%[15.4 µM],1%,-36
Cc1cccc(NC(=O)C2C3C=CC(C4CC34)C2C(=O)O)c1 (stereo not given),-3.5,50µM*,-1.3%,17,0%,5%,2
N#CCCN/N=C(\Cc1nc2ccccc2[nH]1)c1ccccc1,?,1%,-15%,14,6%,3%,-14
Cc1ccc(S(=O)(=O)N2CCCCC2)cc1NC(=O)c1cncc(Br)c1,nt,nt,11µM*,4,9%,-17%,-22
CC(=O)c1ccc(OC(=O)C2CC(=O)N(c3cccc(C)c3)C2)cc1 (stereo not given),3.0,5%,1.5%,5,8%,-17%,-9
Cc1ccccc1NS(=O)(=O)c1ccc(C(=O)NCC2(N3CCOCC3)CCCCC2)cc1,nt,nt,-1.5%,nt,-66%[inhibitor],-12%,-5
O=C(Nc1ccc(S(=O)(=O)N2CCCCC2)cc1)c1ccc(F)cc1,-1.5,9%,nt,-8,4%[15.4 µM],-8%,2
O/N=C/c1ccc(OCc2ccccc2)c(Br)c1,9.0,-13%,1.9%,15,12%,-18%,-15
CCc1nonc1NC(=O)c1oc2ccc(Cl)cc2c1C,-0.3,-4%,-4.7%&-7.0%,6,-116%[inhibitor],3%,-9
CCOC(=O)c1ccc(NC(=O)N2CCN(c3ccccc3OC)CC2)cc1,2.4,-1%,0.7%,-4,?,33%[activator],-9
Cc1cc2c(c(=O)n1Cc1cccnc1)C(c1ccccc1)C(C#N)=C(N)O2 (stereo not given),-1.6,-25%,-1.0%,4,11%,-7%,-5
Cn1c(CN2CCCC2)c(C#N)c2ccccc21,-1.3,3%,1.8%,-6,-5%,-1%,-19
CCc1cccc2c(C(=O)CN3C(=O)NC(C)(c4cccc5ccccc45)C3=O)c[nH]c12 (stereo not given),11,14%,0.3%,2,1%[15.4 µM],-9%,2
COc1ccccc1OCc1nc(-c2ccc([N+](=O)[O-])cc2)no1,-1.5,-11%,1.3%,2,6%,-4%,11
# The listing continues:
SMILES,Menin MLL FP FL,Sfp inh,ClpP mod,TRPV1 PAM,gsp ag,gsp antagonist,D2 PAM
COc1ccc(C2C(C(=O)N3CCN(c4ccccc4)CC3)c3ccccc3C(=O)N2C)cc1OC (stereo not given),0.1,-1%,0.1%,7,23%,-19%,-1
CC(C)Nc1nc(NC(C)C)nc(N(C#N)C(C)C(=O)N(C)C)n1 (stereo not given),1.6,21%,nt,8,nt,nt,nt
COc1ccccc1NS(=O)(=O)c1cc(NC(=O)c2cccnc2)ccc1N1CCCCC1,nt,nt,nt,nt,15%,-15%,-6
CCN(CC(=O)Nc1ccccc1OC)C(=O)c1cccc(-n2cccc2)c1,nt,8%,-0.7%,13,-23%,-3%,3
O=C(N/N=C/c1cccnc1)c1ccccc1OCc1ccc(Cl)cc1,-2.6,1%,nt,-3,nt,nt,nt
COc1ccc(/C=N/N2CCN(c3ccccc3OC)CC2)cc1OC,-2.0,19%,3.9%,-4,-40%[inhibitor],6%,1
COc1ccccc1CCC(=O)OCC(=O)c1c(N)n(CC(C)C)c(=O)n(C)c1=O,nt,nt,-1.4%,2,-25%,-46%,16
COc1ccccc1/C=C/C(=O)OCC(=O)Nc1cc(C(F)(F)F)ccc1N1CCOCC1,0.1,6%,nt,7,-2%[15.4 µM],-5%,-11
Cc1cc(C)c(C(N)=O)c(Nc2cccc3ccccc23)n1,3.9,-10%,-29%,18,-34%[inhibitor],4%,7
Cn1ccnc1SCC(=O)N1CCN(S(=O)(=O)c2ccccc2)CC1,-0.3,27%,1.1%,9,3%,-16%,-6
O=C(COC(=O)/C=C/c1ccc2c(c1)OCO2)NCc1ccc(F)cc1,nt,nt,-11%,nt,-18%,nt,-9
COc1ccc(CCC(=O)NCC23CC4CC(CC(C4)C2)C3)cc1,-0.7,11%,-0.4%,-19,-6%,10%,-3
COc1ccc(S(=O)(=O)NCCc2cc3ccc(C)c(C)c3[nH]c2=O)cc1,1.0,8%,4.0%,8,?,0%,-3
Clc1ccc(-c2nnc(-c3cccc4ccccc34)o2)cc1Cl,0.5,6%,nt,-10,33%[15.4 µM],-5%,-11
CCOC(=O)c1c(-c2ccc(OC)cc2)csc1NC(=O)CSc1ncnc2sccc12,12,10%,-12%,-13,2%,?,-9

# Source: PubChem BioAssay (National Center for Advancing Translational Sciences (NCATS))
